CtBP-E1A inh: blocks the CtBP interaction with E1A; AlphaScreen GST-E1A/His-CtBP binding, 1536-well; hits give low values; control for the full effect not named in the record; activity change, % (no concentration beside the values); 0.49% of 340,000 active; AID 651724; in the data active means activity change below about -65%; inconclusive means about -30% to -65%; inactive means above about -30%; further: on the % scale 0 is the no-effect control and ±100 the full control effect; compound concentration not given in the record
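Steps: dispense buffer (Tris pH 8.0, NaCl 300 mM, TCEP 1 mM, BSA, Tween 20); add 5X protein mix (GST-E1A, His-CtBP, 125 nM each); pin 23 nL compound; 2 h at 37 °C, dark; add 5X beads (50 ug/mL); 1 h; read.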
Six1-Eya2 inh: blocks human Six1 binding to Eya2 | activity change, % (concentration not given with the values) | AID 651725 | AlphaScreen GST-Six1/His-Eya2 binding, biochemical; hits give low values; control for the full effect not named in the record | 0.56% of 360,000 active | Q15475+O00167; in the data active = activity change below about -65%; inconclusive = about -30% to -65%; inactive = above about -30%; further: on the % scale 0 is the no-effect control and ±100 the full control effect
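Homogeneous AlphaScreen proximity assay pairing GST-Six1 with His-tagged Eya2 (added as 5X mix: 250 nM and 500 nM) in 50 mM Tris pH 8.0, 300 mM NaCl, 1 mM TCEP. Glutathione donor and nickel acceptor beads; 1 h, 37 °C, dark.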
Sfp inh: blocks B. subtilis Sfp PPTase activity. Biochemical Sfp PPTase activity, qHTS. Q9F4F7. AID 1490. 3.5% of 310,000 active. Potency, µM, without a hit: max response, negative = inhibition, most hits filed as inhibitors; active means well fitted inhibition curve with a large enough effect; inconclusive means small, poorly fitted or top-dose-only effect, or another doubt; inactive means no such curve, though single readings can be large or run the other way;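 further: the enzyme is Sfp with the accession as filed and its product quenches rhodamine fluorescence; potency means the concentration at half of the fitted maximal effect; 0% = enzyme reaction without inhibitor and -100% = no enzyme wells; top concentration of the series not given in the record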
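Fluorescence-quenching assay with 15 nM Sfp, 5 uM rhodamine-CoA and 12.5 uM BHQ-2-labelled ybbR peptide in pH 7.6 Hepes/MgCl2 buffer. Enzyme was pre-incubated with compound for 15 min at room temperature. Rate was taken from the 30-min fluorescence change (525/598 nm).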
D2 ag: agonists of human D2 dopamine receptor (beta-arrestin); activation, % (no concentration beside the values); 0.084% of 360,000 active; AID 624465; P14416; DiscoveRx PathHunter D2 beta-arrestin, luminescence, 90 min; 100% = 57 uM dopamine signal; in the data active = activation above about 40%; inconclusive = about 15% to 40%; inactive = below about 15%; further: compound concentration not given in the record; the text of the record calls up to 30% inactive
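Agonist mode: compounds alone added to overnight-plated D2 PathHunter cells for 90 min at 37 C, with 57 uM final dopamine (EC100) defining full response. Beta-arrestin recruitment detected by chemiluminescent reagent, read after 1 h at ambient temperature.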
PINK1 expr mod: changes PINK1 expression; PINK1 immunofluorescence, high-content cytometry, 24 h; Potency, µM (doses to about 76.6 µM), for inactives: at the top dose activation (PINK1 increase), actives largely listed as activators; 0.2% of 410,000 active; active = well fitted activation curve with a large enough effect; inconclusive = small, poorly fitted or top-dose-only effect; inactive = flat fitted curve, though single readings scatter; cell line not stated here;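 further: potency means the concentration at half of the fitted maximal effect; % of control where 0% means no effect; nearly all actives have a fitted effect of over 65% in size; a mitochondrial uncoupler was the plate control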
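Fluorescence from anti-PINK1 antibody, together with nuclear and cell stains, was scanned on a laser-scanning cytometer. Before staining, stable-line cells were incubated 24 hours with compounds at 5 concentrations; primary antibody 12 h at 10 degrees C.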
D2 PAM: human D2 receptor positive allosteric modulation. DiscoveRx D2 beta-arrestin cells, luminescence, 90 min; 100% = 57 uM dopamine signal. potentiation, % (test concentration not listed). 0.23% of 360,000 active; active = potentiation of 50% or more; inconclusive = 30% to 50%; inactive = 30% or less;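 further: compound concentration not given in the record; tested on top of an EC20 dose of dopamine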
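PathHunter beta-arrestin assay in DiscoveRx D2 cells. Compounds were added with an EC20 of dopamine (50 nM final) for 90 min at 37 deg C. Luminescence was read 1 h after detection reagent, with 57 uM dopamine as the EC100 control.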
TRPV1 potentiator: human TRPV1 potentiation; TRPV1-expressing cells, Fluo-8 calcium influx, capsaicin EC20 potentiation; host cell line not named in the record; control for the full effect not named in the record; potentiation, % at 8.33 µM; 0.02% of 320,000 active; active means potentiation above 80%; inconclusive means 30% to 80%; inactive means below 30%; further: 0% is about no effect
Target sequence (Q8NER1 whole entry, looked up): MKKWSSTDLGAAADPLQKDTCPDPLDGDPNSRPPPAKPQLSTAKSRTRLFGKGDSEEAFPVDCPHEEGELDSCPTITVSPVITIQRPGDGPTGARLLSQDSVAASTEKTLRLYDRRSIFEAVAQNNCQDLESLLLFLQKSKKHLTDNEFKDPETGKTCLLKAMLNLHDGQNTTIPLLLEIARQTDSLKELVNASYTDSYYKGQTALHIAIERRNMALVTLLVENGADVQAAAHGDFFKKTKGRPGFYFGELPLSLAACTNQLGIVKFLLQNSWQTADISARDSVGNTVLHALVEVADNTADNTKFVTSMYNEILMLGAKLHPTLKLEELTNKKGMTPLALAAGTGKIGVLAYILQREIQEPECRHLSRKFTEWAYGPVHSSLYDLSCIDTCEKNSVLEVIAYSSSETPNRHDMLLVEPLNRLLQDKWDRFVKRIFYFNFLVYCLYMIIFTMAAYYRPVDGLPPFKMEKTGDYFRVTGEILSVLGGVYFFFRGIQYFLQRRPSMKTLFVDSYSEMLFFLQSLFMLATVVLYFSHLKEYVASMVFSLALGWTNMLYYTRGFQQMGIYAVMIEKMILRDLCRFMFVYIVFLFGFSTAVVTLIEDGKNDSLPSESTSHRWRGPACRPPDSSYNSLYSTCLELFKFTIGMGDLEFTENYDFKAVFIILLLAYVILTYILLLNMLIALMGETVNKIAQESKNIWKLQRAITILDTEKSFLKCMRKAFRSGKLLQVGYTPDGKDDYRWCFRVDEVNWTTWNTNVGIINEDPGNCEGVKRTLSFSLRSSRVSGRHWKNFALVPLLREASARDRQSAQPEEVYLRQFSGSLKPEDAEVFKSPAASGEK
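Fluo-8 calcium influx in TRPV1-expressing cells, kinetic read (ex 480/em 520 nm). Compound added and read 3 min for agonist activity, followed by capsaicin at EC20 final and 2 min further read for enhancement.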
* marks the source's active call; other numbers are inactive results; ? = inconclusive; · = no result given; & = joins results of further samples; [ ] = remark or other dose.

SMILES | CtBP-E1A inh | Six1-Eya2 inh | Sfp inh | D2 ag | PINK1 expr mod | D2 PAM | TRPV1 potentiator
O=C(c1ccccc1)C1CCN(C(=O)C2CCC(=O)N(Cc3ccccc3F)C2)CC1 (centres undefined) | 0 | 2 | 8% | -2.3 | -0.6% | -18 | -3
CC1CN(S(=O)(=O)N2CCOCC2)CCN1S(=O)(=O)N1CCOCC1 (centres undefined) | -2 | -4 | 13% | 3.1 | -1.4% | -2 | -2
CN1CCN(S(=O)(=O)c2ccc(NC(=O)c3ccccc3F)cc2)CC1 | · | 6 | 9% | -0.8 | -0.4% | 3 | -7
Cc1ccc(CN2CCC(C(=O)NCCC(C)C)CC2)o1 | -12 | -11 | 2% | -2.0 | -0.9% | -30 | 26
COC(=O)CNC(=O)c1cccc(Cl)c1 | · | 2 | 16% | -2.0 | -0.6% | 0 | 0
COc1ccc(C(=O)C(C)OC(=O)CNC(=O)c2ccco2)cc1 (centres undefined) | · | 1 | · | -0.9 | -1.7% | 1 | ·
O=C(COC(=O)c1cc(Cl)ccc1O)NC(=O)NCc1ccccc1 | 1 | 1 | · | -2.2 | -0.4% | -2 | 14
Cn1c(=O)c(=O)n(C)c2cc(S(=O)(=O)NCCN3CCN(c4ccccc4F)CC3)ccc21 | 6 | 6 | -4% | 2.3 | -1.0% | -10 | 5
O=C(CSc1nc2nc(-c3cccs3)cc(C(F)(F)F)c2c(=O)[nH]1)Nc1c(F)c(F)c(F)c(F)c1F | -30 | -13 | 12% | 2.4 | ? | 0 | 7
CN1C=C/C(=C\c2cc[n+](C)c3ccccc23)c2ccccc21 | -8 | -21 | 10% | 0.1 | 5µM* | 3 | 5
Cc1[nH]n(-c2ccc(F)cc2)c(=O)c1/C=N/c1sc2c(c1C#N)CCCC2 | -1 | -7 | 8% | 4.8 | 1.0% | -13 | 3
Nc1ccc2c(c1)Nc1ccccc1CC2 | 0 | -22 | -2% | 8.8 | 2.4% | -7 | 6
CC(OC(=O)c1cccc(O)c1)C(=O)N(C)Cc1ccccc1 (centres undefined) | -19 | 0 | · | -0.4 | -0.4% | 1 | 4
O=C(CC1C(=O)NCCN1Cc1ccc(F)cc1Cl)NC1CCCCCCC1 (centres undefined) | 3 | -7 | 1% | -1.7 | 0.2% | -5 | 0
CC(=O)c1c(C)n([O-])c2ccc(C)cc2[n+]1=O | -7 | 10 | -8% | -1.7 | -1.0% | 2 | -17
COc1cccc(OCCOc2ccc(/C=C3/SC(=S)NC3=O)cc2)c1 | 0 | -16 | 50µM* | -22 | 0.0% | -2 | 23
COc1c(/C=N/NC(N)=S)c(C)nn1-c1ccccc1 | -18 | -7 | -15% | -4.6 | -1.4% | -7 | -4
O=C(c1ccccc1F)N(Cc1ccc2c(c1)OCO2)Cc1cc2cc3c(cc2n2nnnc12)OCO3 | 0 | -1 | 2% | 1.1 | 0.6% | -3 | 17
COCC(C)N1CCC(n2nccc2NC(=O)c2ccc3c(c2)OCO3)CC1 (centres undefined) | -1 | -2 | 8% | -0.4 | 0.3% | 4 | -36
C[C@H](CO)N1C[C@H](C)[C@@H](CN(C)C(=O)Nc2ccccc2)Oc2c(cccc2N(C)C)C1=O | 0 | -1 | · | -1.3 | -0.7% | · | ·
c1ccc(COc2ccccc2CNC23CC4CC(CC(C4)C2)C3)cc1 | -2 | 3 | 56µM* | -5.4 | -1.4% | -13 | 29
O=c1c(C=NCc2cccnc2)c(C(F)(F)F)[nH]n1-c1nc2ccccc2s1 | -27 | 3 | 19% | 0.7 | -0.9% | 0 | -7
Cc1ccc(-c2nc(N/N=C/c3ccccc3[N+](=O)[O-])c3ccccc3n2)cc1 | -6 | -5 | -16% | -3.7 | 27%[38.3 µM] | -6 | -6
CC(C(=O)Nc1ccc([N+](=O)[O-])cc1)N1CCN(C/C=C/c2ccccc2)CC1 (centres undefined) | -13 | -16 | 21% | 3.1 | -3.0% | -30 | -39
CCN(CC)/C(=N/O)NC(=O)NS(=O)(=O)c1ccc(C)cc1 | 2 | 14 | 7% | 1.3 | -5.4% | -2 | -14
CCc1c(O)nc(SCC(=O)N2CCOCC2)n(-c2ccccc2)c1=O | 7 | -1 | 3% | -1.8 | 3.9%[38.3 µM] | 9 | -6
COc1cccc(NC(=S)NN2CCN(C)CC2)c1 | 8 | 5 | -19% | -2.0 | 2.3% | -3 | -7
O=C(O)CCCC(=O)Nc1ccc(Br)cc1C(=O)O | 7 | 1 | 4% | 0.4 | 1.0% | -7 | 11
COCCN(C(=O)COC(=O)C1(c2ccccc2)CC1)c1c(N)n(CC(C)C)c(=O)[nH]c1=O | 4 | 1 | · | -8.6 | 2.5% | -6 | 4
Cc1cc2c3nonc3ccc2n1-c1ccccc1 | 27 | 21 | -21% | -2.6 | -3.0% | -8 | -8
Oc1cccc(CCC2CCCCN2Cc2cn[nH]c2-c2ccc3c(c2)OCO3)c1 (centres undefined) | -7 | -4 | 12% | -1.8 | 0.2% | -17 | -1
Cc1cc(Br)cc(Br)c1OCC(=O)NNC(=O)c1ccoc1C | -3 | 5 | 12% | 0.9 | 2.9% | -12 | 0
O=S(=O)(NC1CCCCC1)c1ccc(F)c2ccccc12 | 11 | 3 | -26% | -0.4 | ? | -2 | 2
COc1cccc(OC)c1C(=O)Nc1nc2ccc(S(C)(=O)=O)cc2s1 | 4 | -2 | 0% | -1.9 | -0.4% | -4 | 0
O=C1CSC(c2cccc(F)c2)N1c1ccccc1F (centres undefined) | -1 | 4 | 5% | -3.7 | -0.8% | 4 | -18
COc1ccc(-c2cn(CC3CCCCC3)nn2)cc1 | 6 | 1 | 16% | -3.8 | 6.2% | -8 | -28
CCOc1cc(/C=N/NC(=O)CSc2cccc3cccnc23)ccc1O | -74* | -66* | 6% | 0.0 | -0.4% | -6 | 18
Cc1ccc(-c2nc3ccc(NS(=O)(=O)c4ccccc4)cc3[nH]2)o1 | 13 | -21 | 35µM* | 4.5 | -4.9%[38.3 µM] | -3 | 7
COC(=O)c1[nH]c2cc(OC)ccc2c1N | -3 | -8 | 25µM* | 3.5 | -2.0% | 11 | 1
NC1=NC(=O)C(c2ccccc2)C(=O)N1 (centres undefined) | 1 | 7 | · | -2.0 | 1.5% | -5 | ·
Cn1cccc1C(=O)C(=O)Nc1ccccc1 | -4 | 11 | 6% | -1.3 | 1.9% | -7 | -13
CC(C)CCN(CC(=O)NC1CCCC1)C(=O)C(=O)Nc1ccc2c(c1)OCCO2 | -10 | 9 | -2% | -0.4 | 3.2% | -5 | -4
Cc1c(OCC(N)=O)ccc2c(-c3ccccc3)cc(=O)oc12 | 2 | 2 | -13% | -2.6 | 12% | -5 | -6
CC1CCCCN1S(=O)(=O)c1ccc(C(=O)N2CCOCC2)cc1 (centres undefined) | 5 | 2 | 18% | -0.1 | -2.0% | -1 | 23
CCOc1ccccc1NC(=O)CSc1nccn1-c1ccccc1 | 1 | -4 | -5% | 3.9 | -1.7% | -4 | -20

3 records drawn at random from the list so far:
SMILES | CtBP-E1A inh | Six1-Eya2 inh | Sfp inh | D2 ag | PINK1 expr mod | D2 PAM | TRPV1 potentiator
COCCN(C(=O)COC(=O)C1(c2ccccc2)CC1)c1c(N)n(CC(C)C)c(=O)[nH]c1=O | 4 | 1 | · | -8.6 | 2.5% | -6 | 4
Cc1cc(Br)cc(Br)c1OCC(=O)NNC(=O)c1ccoc1C | -3 | 5 | 12% | 0.9 | 2.9% | -12 | 0
CCOc1ccccc1NC(=O)CSc1nccn1-c1ccccc1 | 1 | -4 | -5% | 3.9 | -1.7% | -4 | -20

Next structures.
SMILES | CtBP-E1A inh | Six1-Eya2 inh | Sfp inh | D2 ag | PINK1 expr mod | D2 PAM | TRPV1 potentiator
O=C(NCc1cccc(Cl)c1)C1CCC(=O)N(C2CC2)C1 (centres undefined) | 3 | 2 | 14% | -0.9 | -0.3% | -3 | 1
Cc1ccc(N(CC(=O)NC(C)(C)C)C(=O)CCC(=O)Nc2nccs2)cc1C | -4 | 5 | 19% | -3.1 | -0.7% | -7 | -9
O=C(O)Cc1ccc(C(=O)c2ccccc2)s1 | 5 | 5 | 11% | -1.1 | 2.4% | -3 | 5
COCC(C)n1c(SCC(=O)N2CCCCC2)nc2ccccc2c1=O (centres undefined) | 0 | 2 | 1% | -1.1 | 0.1% | -4 | -29
Cc1c(C(N)=O)sc(N)c1C(=O)OC(C)C | 2 | 2 | -18% | -2.2 | -1.0% | -9 | 3
CCC(CO)Nc1nc(CN2CCCCC2)nc2scc(-c3ccccc3)c12 (centres undefined) | 2 | 0 | -2% | -3.9 | -0.9% | -9 | -9
C/C(O)=C(\C#N)c1nnc2n1CCCCC2 | 11 | 6 | ? | -1.4 | 2.4%[38.3 µM] | -11 | -7
Cc1ccccc1S(=O)(=O)NC(=O)C1(C)CCN1C(=O)C1(c2ccc(Cl)cc2)CC1 (centres undefined) | 10 | 7 | · | 5.9 | 1.3% | -2 | ·
CCOc1cc(C2NC(=O)NC(C)=C2C(=O)OCC2CCCCC2)ccc1O (centres undefined) | ? | -9 | 1% | 3.6 | -0.4% | 16 | 8
COCCn1c(=N)c(C(=O)NCc2ccco2)cc2c(=O)n3cc(C)ccc3nc21 | 2 | -4 | -24% | -0.8 | 1.9%&1.0% | -1 | -2
COc1ccccc1/C=C/C=N/NC(=O)CN1CCN(Cc2ccccc2)CC1 | -3 | -2 | -22% | -11 | 0.0% | -14 | ?
CCN(C(=O)COC(=O)c1ccccc1O)c1nc2ccccc2s1 | -5 | -12 | · | 0.9 | 19% | -3 | ·
Clc1cccc(CNCCCSc2ncccn2)c1 | 1 | 3 | -10% | -2.9 | -1.7% | -12 | -11
Cc1ccnc(NC(=O)CCC(=O)N(CC(=O)NC2CCCCC2)Cc2ccccc2)c1 | · | -2 | 30% | 3.3 | 0.3% | -7 | -5
COC(=O)[C@]12CCCCC=C1N(Cc1ccccc1)C(=O)[C@H](CC(=O)N1CCSCC1)C2 | -4 | -3 | · | · | 0.7% | · | ·
CCOC(=O)c1cccc(NC(=O)Cn2cc3c(n2)CCC(C)C3)c1 (centres undefined) | 0 | 0 | -8% | -4.5 | 2.5% | -2 | -4
NC(=O)c1cccc(-c2ccnc3c2CC(C(=O)Nc2ccc(Cl)cc2)O3)c1 (centres undefined) | -8 | 0 | · | -2.8 | 7.2% | -4 | ·
CCO[C@H]1OC(C(N)=O)=C[C@@H](C2CC2)[C@@H]1CCCO | 4 | 3 | · | -1.7 | 0.5% | -10 | ·

High-throughput results: PubChem, National Center for Advancing Translational Sciences (NCATS)
